Screening data: PubChem BioAssay, several laboratories
RN4220 kill: kills Staphylococcus aureus RN4220. S. aureus RN4220 growth, OD600, 16 h. inhibition, % (no concentration beside the values). 330,000 compounds, 0.33% hits. AID 1259311;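 active means z-score of -3 or lower and OD600 up to 0.18 on both plates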;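 further: plate controls were untreated cells for no effect and reference antibiotic for full effect; stock transfer was 100 nL into about 80 µL; one replicate is shown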
PrP 5UTR inh: suppresses PrP 5' UTR mRNA reporter expression | cell-based PrP 5' UTR mRNA reporter, plate reader | inhibition, % (no concentration beside the values) | 340,000 compounds, 0.35% hits | AID 488862;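 active means every replicate at 50% or more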;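 further: 0 = median of the neutral control wells; tested in H4 reporter cells; numbers are from one replicate; inactives centre near -14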
BJeLR viability: BJeLR cell viability loss | BJeLR (HRASV12) viability, CellTiter-Glo ATP luminescence, 48 h; reference of the scale not given here | inhibition, % (concentration not given with the values) | 300,000 compounds, 0.17% hits;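 active means replicate mean above 50%; inconclusive means above 50% but judged a plate artefact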;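 further: 50 nL library stock added to about 25 µL; numbers are from one replicate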
Bead autofluor: flagged as autofluorescent in microsphere protease counterscreen | 360,000 compounds, 3.1% hits | compound autofluorescence counterscreen, microsphere flow cytometry; stronger effect = higher value | fluorescence intensity (test concentration not listed);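 active means at least 3 SD above the mean of all compounds, about 16000 in these data; inconclusive means too few beads counted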;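 further: 100 nL of 1 mM stock went into each well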
Mtb hypoxia inh: reduces hypoxia-regulated biosensor signal in M. tuberculosis; M. tuberculosis hypoxia-regulated fluorescent reporter, fluorescence; AID 1159583; 300,000 compounds, 0.1% hits; fluorescence inhibition, % (test concentration not listed);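 active means 35 to 45% if threefold the growth effect, above 45% if 1.5-fold the growth effect; inactive means the rest, general growth blockers included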;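 further: wells of about 50 µL received 100 nL stock; 0% = vehicle wells and 100% = reference inhibitor wells; whole bacteria with a GFP reporter of the hypoxia response; strong numbers were not always called active; many hits fall short of the cut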
ugtP null kill: compounds lethal to S. aureus RN4220 ugtP deletion mutant; OD600 growth, 16 h; some inactives read as strong as hits; growth inhibition, % (concentration not given with the values); 330,000 compounds, 0.54% hits; AID 1259309;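 active means z-score under -3 and OD600 up to 0.15 on both plates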;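 further: plate controls were untreated wells for no effect and antibiotic for full effect; wells of about 80 µL received 100 nL stock; the first replicate is given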
Mtb hypoxia inh growth: further read-out of Mtb hypoxia inh, marked with its call; growth inhibition, %; measured here: M. tuberculosis growth (absorbance);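 0% = vehicle and 100% = reference antibiotic; read after six days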
* hit, by the source's call; ? = inconclusive; . = not tested or not shown.

SMILES | RN4220 kill | PrP 5UTR inh | BJeLR viability | Bead autofluor | Mtb hypoxia inh | Mtb hypoxia inh growth | ugtP null kill
CC(C)OC(=O)Cc1nc2sc(-c3ccccc3)cc2c(=O)[nH]1 | -3.6 | -33 | -7 | 3833 | -11 | 2 | -10
COc1ccc(C(=O)NCc2ccccc2C)cc1S(=O)(=O)NC1CCCC1 | 3.6 | -3 | . | 3477 | 10 | 5 | 10
Cc1ccc(CSc2nc3nc(C)cc(C)c3c(=O)[nH]2)cc1 | 4.1 | -10 | 3 | 4871 | -3 | -5 | 4
CCN(CC)CCCNc1oc(-c2ccc(OC)c(OC)c2)nc1C#N | -15 | -11 | 10 | 3305 | 12 | 1 | -1
COc1ccc(-c2csc(NC(=O)CSC(C)C(=O)Nc3cc(C)on3)n2)cc1OC (stereo not drawn) | -3.0 | -11 | . | 4123 | 4 | 0 | 12
CC(=O)N1CCN(C(=O)c2cc(S(=O)(=O)N(C)c3ccc(F)cc3)ccc2Cl)CC1 | 2.3 | 5 | -4 | 5021 | 1 | -1 | -4
Cc1ccc(-n2ncc3c2CC(C)(C)CC3NC(=O)CCn2cncn2)cc1 (stereo not drawn) | 2.7 | -8 | 2 | 7361 | 4 | -1 | 3
Cc1ccccc1/C=N/NC(=O)Cn1nnc(N)n1 | . | -22 | -5 | 5454 | . | . | .
Cc1c(-c2cccs2)[n+](=O)c2c(n1[O-])CCC2 | 0.0 | -18 | -1 | 4719 | 17 | 13 | 4
COC(=O)C(O)(c1ccc(NC(=S)NC(=O)c2ccccc2)cc1)C(F)(F)F (stereo not drawn) | -0.7 | -4 | 10 | 16903* | -1 | -3 | 89*
COc1ccc(C(=O)Nc2ccc(/C(C)=N/NC(=O)c3ccccc3O)cc2)cc1OC | . | 6 | -9 | 6896 | . | . | .
Cc1ccc(S(=O)(=O)N2CCN(CC(O)c3ccccc3)CC2)cc1C (stereo not drawn) | -0.5 | -28 | -7 | 4346 | 0 | 8 | -4
COC(=O)c1ccc(-n2nnnc2SCC(=O)Nc2ccccc2C(=O)OC)cc1 | 0.8 | -3 | 1 | 2799 | . | . | 7
CC1(c2ccc(Cl)cc2)NC(=O)N(CC(=O)N2CCN(S(=O)(=O)c3ccccc3)CC2)C1=O (stereo not drawn) | -4.1 | -33 | -2 | . | 0 | 12 | -3
CC(=O)Nc1ccc(C(=O)N2CCc3cc4c(cc3C2C)OCCCO4)cc1 (stereo not drawn) | 2.6 | -5 | -3 | 6228 | . | . | -9
O=C(O)C1=C[C@@H](c2coc3ccccc3c2=O)C[C@@H](OCc2ccc(CO)cc2)O1 | -7.6 | -13 | 2 | 2897 | 8 | 4 | 5
Cc1[nH]c(=S)[nH]c(=O)c1CCC1OCCO1 | 2.8 | -9 | 0 | 2999 | 12 | 14 | 3
O=C(Cc1ccccn1)c1ccc(F)cc1 | 7.9 | -33 | -11 | 4465 | 9 | 7 | 2
O=C(Cn1cc(C(F)(F)F)ccc1=O)NCC1CCCO1 (stereo not drawn) | -2.0 | -3 | . | 4067 | -5 | 11 | -5
COc1ccc(OC)c(CNC(=O)c2coc(=O)c3ccccc23)c1 | 2.8 | -22 | 5 | 3931 | 0 | 8 | 1
CCOC(=O)C1=C(C)N=c2s/c(=C/c3ccc(OCC(=O)O)cc3)c(=O)n2C1c1ccc(SC)cc1 (stereo not drawn) | . | -17 | 6 | 4284 | . | . | .
COC(=O)C1=C(CSCc2ccccc2)NC(=O)NC1c1cc(C)ccc1C (stereo not drawn) | 5.0 | . | 2 | 10910 | -5 | 2 | -19
COc1cc(C=NNc2cc(C)nc(NS(=O)(=O)c3ccccc3)n2)ccc1O | -2.1 | . | . | . | 4 | 0 | 4
C=CC[n+]1ccn(-c2nc3ccccc3nc2[N-]S(=O)(=O)c2cccs2)c1 | 1.0 | -13 | 7 | 6032 | 3 | -4 | 11
O=C(CN(c1ccccc1)S(=O)(=O)c1ccccc1)NCCSc1nc2ccccc2s1 | -2.7 | 2 | 12 | 2547 | 2 | 3 | -7

The results go on.
SMILES | RN4220 kill | PrP 5UTR inh | BJeLR viability | Bead autofluor | Mtb hypoxia inh | Mtb hypoxia inh growth | ugtP null kill
CCN(CC)S(=O)(=O)c1ccc(/C=C/C(=O)NC2CCCCC2)cc1 | 1.0 | -9 | -15 | 5778 | 9 | 1 | 3
COc1ccc(C(=O)Nc2ccc(C)cc2C(=O)c2ccccc2)cc1 | -1.4 | -6 | -3 | 1958 | 14 | 14 | 19
CC(C)C(NC(=O)c1c(F)cccc1F)C(=O)N1CCN(c2ccccc2F)CC1 (stereo not drawn) | 4.7 | -15 | -4 | 3064 | 16 | 2 | 8
CC1(C)CC(=O)c2cn3c(nc2C1)nc1ccccc13 | -0.8 | -7 | -8 | 3211 | -1 | 5 | -3
CCCOc1ccc(-c2nc(C#N)c(N3CCc4ccccc4C3)o2)cc1 | 3.1 | -20 | -5 | 15971 | 1 | -4 | -13
COc1cc(NC(=O)CSc2nnc(-c3ccncc3)n2C2CCCCC2)ccc1NC(=O)c1ccco1 | 24 | -17 | . | 9518 | 1 | 3 | -9
Fc1cc2nccnc2cc1N1CCSCC1 | 4.5 | . | -18 | 10733 | 3 | 6 | 3
CCC(=O)c1ccc(N2CCN(C(=O)COc3ccc(F)cc3)CC2)c(F)c1 | -4.7 | -13 | 3 | 3115 | . | . | -7
CC(=O)N/C(=C\c1ccccc1)C(=O)OCC(=O)NC(=O)c1ccccc1 | 1.3 | -21 | -1 | ? | 8 | -1 | 3
CCCCOC(=O)n1c(SCC(=O)N(CC)CC)nc2ccccc21 | 2.1 | -33 | -16 | 24831* | -8 | -6 | -5
CC1=C(C(=O)Nc2ccccc2)C(c2ccc(C)o2)n2c(s/c(=C\c3ccco3)c2=O)=N1 (stereo not drawn) | . | -1 | 1 | 3789 | . | . | .
CNC(=O)COC(=O)C(Nc1ccc(S(=O)(=O)N2CCOCC2)cc1[N+](=O)[O-])C(C)C (stereo not drawn) | 1.5 | . | . | . | 3 | 0 | 5
O=C1CN(C(=O)COc2ccc(Cl)cc2Cl)c2ccccc2N1 | 4.7 | -15 | -1 | 3750 | 15 | -8 | -2
Cc1ccc(C(=O)N2CC(=O)Nc3ccc(C)cc3C2c2ccccc2)cc1 (stereo not drawn) | 2.5 | 20 | 4 | 3158 | 5 | 6 | 11
Cc1c(C)c2ccc(OCC(=O)Nc3nccs3)cc2oc1=O | 4.1 | 17 | 0 | 5353 | 2 | 2 | 1
O=C(COc1ccccc1)NC1CCCN(Cc2ccccc2F)C1 (stereo not drawn) | 4.3 | -2 | 8 | 5139 | 14 | 6 | 5
CC1Oc2ccccc2N(CC(=O)c2ccc(F)cc2)C1=O (stereo not drawn) | 1.7 | -31 | -12 | 2107 | 1 | 10 | 4
Cc1ccc([N+](=O)[O-])c(OCCN2CCCCCC2)c1 | 2.4 | -71 | 3 | 2342 | 7 | 1 | 5
COC(=O)[C@H](Cc1ccccc1)NC(=O)N1CCCCC1 | 2.1 | -19 | -7 | 3733 | 8 | 14 | 3
CC1(C)Cc2c(sc3c2C(=O)N(c2ccccc2)C2=NCCCN23)CO1 | 6.1 | -13 | -9 | 11682 | 6 | 11 | -8
Cc1ccc(CC(=O)NCc2ccc(F)cc2)cc1 | 3.3 | -31 | 23 | 2451 | 10 | 4 | 2
O=C(CCCN1CCC(NC(=O)c2ccccc2)CC1)c1ccc(Cl)cc1 | 2.7 | -10 | -4 | 3352 | 1 | -1 | 5
CC(C)(C)N1CC23CCC(CC2C1=O)O3 (stereo not drawn) | 0.4 | . | . | . | 7 | 0 | -10
CC(O)c1cccc(NC(=O)CCCc2ccccc2)c1 (stereo not drawn) | 3.3 | -40 | 7 | 4349 | 16 | 2 | 1
O=C(Nc1ccc(Br)cc1)C(c1ccccc1)c1ccccc1 | -2.2 | -6 | -1 | 5658 | . | . | 9

6 entries out of the list, sorted by length of the SMILES, smallest number first.
SMILES | RN4220 kill | PrP 5UTR inh | BJeLR viability | Bead autofluor | Mtb hypoxia inh | Mtb hypoxia inh growth | ugtP null kill
CC1Oc2ccccc2N(CC(=O)c2ccc(F)cc2)C1=O (stereo not drawn) | 1.7 | -31 | -12 | 2107 | 1 | 10 | 4
Cc1ccc([N+](=O)[O-])c(OCCN2CCCCCC2)c1 | 2.4 | -71 | 3 | 2342 | 7 | 1 | 5
COc1ccc(OC)c(CNC(=O)c2coc(=O)c3ccccc23)c1 | 2.8 | -22 | 5 | 3931 | 0 | 8 | 1
CCC(=O)c1ccc(N2CCN(C(=O)COc3ccc(F)cc3)CC2)c(F)c1 | -4.7 | -13 | 3 | 3115 | . | . | -7
CC(C)C(NC(=O)c1c(F)cccc1F)C(=O)N1CCN(c2ccccc2F)CC1 (stereo not drawn) | 4.7 | -15 | -4 | 3064 | 16 | 2 | 8
COc1ccc(-c2csc(NC(=O)CSC(C)C(=O)Nc3cc(C)on3)n2)cc1OC (stereo not drawn) | -3.0 | -11 | . | 4123 | 4 | 0 | 12

Next part
SMILES | RN4220 kill | PrP 5UTR inh | BJeLR viability | Bead autofluor | Mtb hypoxia inh | Mtb hypoxia inh growth | ugtP null kill
O=C(c1ccccc1)N1CCN(CC#Cc2ccccc2)CC1 | -6.0 | -32 | -8 | 5101 | . | . | 12
CCOc1cc(/C=N/Nc2nc(-c3cccs3)c(NC(C)=O)s2)ccc1O | . | -12 | 2 | 3158 | . | . | .
CCO[C@H]1OC(C(=O)NCc2nc3ccccc3[nH]2)=C[C@@H](c2ccc(C(F)(F)F)cc2)[C@@H]1CCCO | . | 2 | -9 | 3719 | . | . | .
CNc1nnc(CSc2nc(C)cc(C)n2)s1 | 1.6 | -37 | -2 | 1985 | . | . | 3
Cc1ccc(NC(=S)NN(C)c2nc(C)cnc2C)cc1 | 3.1 | -14 | -7 | 1978 | 1 | -4 | 2
C[C@H](NS(=O)(=O)c1ccccc1F)C(=O)OCC(=O)Nc1ccc2c(c1)OCCO2 | 3.8 | -13 | . | 4325 | 2 | 2 | 0
COC(=O)c1c(NC(=O)CS(=O)(=O)c2ccccc2)sc(C)c1C | 6.5 | -4 | -3 | 5931 | -5 | 6 | 4
Cc1ccc(NS(=O)(=O)c2ccc(-n3cccn3)cc2)cc1C | 1.1 | -11 | 7 | 5493 | 12 | 0 | -5
O=C(Nc1ccccc1N1CCCC1)C1CCN(S(=O)(=O)c2ccccc2C(F)(F)F)CC1 | -0.1 | -17 | 0 | . | 7 | 2 | 0
Cc1cccnc1NC(=O)C1CC(=O)N(c2ccc3c(c2)OCCO3)C1 (stereo not drawn) | 4.6 | -11 | -8 | 6794 | -3 | -8 | 5
O=C(NNC1=Nc2ccccc2SC1)c1cccc([N+](=O)[O-])c1 | 3.0 | . | 8 | . | 12 | 0 | 10
COc1cc(C2SC(C)C(=O)N2CCc2ccccc2)cc(OC)c1OC (stereo not drawn) | 6.5 | -26 | 1 | 2268 | 3 | 0 | 5
CCc1ccc(C(=O)NN=Cc2ccncc2)s1 | -3.4 | . | . | . | 5 | -3 | -3
CCC(C)Sc1cccc(-c2nc3cnccn3c2NC2CCCCC2)c1 (stereo not drawn) | -19 | -16 | . | 4105 | 3 | 3 | 2
Cc1ccc(Nc2ncc3c(n2)CC(C)CC3=O)c(C)c1 (stereo not drawn) | 2.9 | -44 | -4 | 3880 | 4 | 4 | 13

Taken from above.
ugtP null kill, O=C(Nc1ccccc1N1CCCC1)C1CCN(S(=O)(=O)c2ccccc2C(F)(F)F)CC1 reads 0
RN4220 kill, Cc1ccc(NC(=S)NN(C)c2nc(C)cnc2C)cc1 reads 3.1

3 entries from above in another layout.
SMILES,RN4220 kill,PrP 5UTR inh,BJeLR viability,Bead autofluor,Mtb hypoxia inh,Mtb hypoxia inh growth,ugtP null kill
O=C(CN(c1ccccc1)S(=O)(=O)c1ccccc1)NCCSc1nc2ccccc2s1,-2.7,2,12,2547,2,3,-7
COc1ccc(C(=O)Nc2ccc(/C(C)=N/NC(=O)c3ccccc3O)cc2)cc1OC,.,6,-9,6896,.,.,.
O=C(COc1ccccc1)NC1CCCN(Cc2ccccc2F)C1 (stereo not drawn),4.3,-2,8,5139,14,6,5
